Screening results from PubChem BioAssay.
VDR inh = blocks the human vitamin D receptor; P11473; VDR-SRC2-3 peptide fluorescence polarization, 2 h; Potency, µM, for inactives: max response, negative = inhibition, most hits filed as inhibitors; 400,000 tested, 0.93% active; AID 504847; active means well fitted inhibition curve with a large enough effect; inconclusive means small, poorly fitted or top-dose-only effect, or another doubt; inactive means no such curve, though single readings can be large or run the other way; further: series mostly up to about 120 µM
Target sequence (P11473 whole entry, looked up): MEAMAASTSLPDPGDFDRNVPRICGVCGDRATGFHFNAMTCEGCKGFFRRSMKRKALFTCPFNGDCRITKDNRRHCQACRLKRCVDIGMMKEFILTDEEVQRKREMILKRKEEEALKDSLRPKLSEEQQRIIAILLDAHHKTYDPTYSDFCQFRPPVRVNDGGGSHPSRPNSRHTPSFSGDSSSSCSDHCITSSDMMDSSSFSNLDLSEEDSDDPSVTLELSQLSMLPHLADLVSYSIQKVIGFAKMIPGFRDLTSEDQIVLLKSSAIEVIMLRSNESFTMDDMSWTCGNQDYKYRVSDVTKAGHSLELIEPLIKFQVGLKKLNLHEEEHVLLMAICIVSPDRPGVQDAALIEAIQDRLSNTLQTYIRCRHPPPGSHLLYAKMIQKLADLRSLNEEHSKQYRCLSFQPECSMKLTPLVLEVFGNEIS
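FP read-out; VDR + SRC2-3 coactivator peptide; 23 nl compound by pintool; 2 h RT incubation; reagents held at 4 deg C, protected from light.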
Starred values were filed as active, the others as inactive; ? = inconclusive. On the % scale 0 is the no-effect control and ±100 the full control effect; potency means the concentration at half of the fitted maximal effect. An excerpt (hit frequency here may not be typical).

SMILES	VDR inh
O=C1NCCCC1C(=O)N/N=C/c1cc([N+](=O)[O-])ccc1O (configuration not stated)	13%
Cc1ccc(S(=O)(=O)N2CCCCC2)cc1NC(=O)CCNC(=O)c1ccccc1	-23%
CCOc1cc(N2CCOCC2)c(OCC)cc1NC(=O)CCS(=O)(=O)c1ccc(Cl)cc1	-1%
Cc1ccc(NC(=O)CNc2cc(S(=O)(=O)N3CCOCC3)ccc2NCC2CCCO2)cc1F (configuration not stated)	10%
O=C(/C=C/c1ccccc1)N/C(=C/c1ccccc1)C(=O)Nc1ccc(C(=O)O)cc1	?
CC1CCCN(C2(O)C(=O)Nc3c(C(F)(F)F)cccc32)C1 (configuration not stated)	-4%
Cc1ccc(NC(=O)CCn2nc(-c3ccccc3)c3ccccc3c2=O)c(C)c1	-19%
COc1cccc(C2CC(=O)Nc3c2ccc(C)c3C)c1OC (configuration not stated)	-24%
CC(C)NC(=O)/C(=N\O)c1ccccc1	-17%
Cc1ccc(C)c(NC(=O)CN(C)C(=O)c2ccccc2OCc2c(C)noc2C)c1	-10%
O=C(O)COCC(=O)Nc1ccc2c(c1)CCC2	-7%
O=S(=O)(c1ccccc1F)N1CCCc2ccccc21	-19%
Cc1ccccc1Nc1nnc(-c2ccc(C)c(S(=O)(=O)N3CCN(C)CC3)c2)c2ccccc12	-3%
O=C(CN1C(=O)/C(=C/c2ccc(F)cc2)SC1=S)NC1CCS(=O)(=O)C1 (configuration not stated)	-7%
O=c1ccc2cc(S(=O)(=O)Nc3ccc(OC(F)(F)F)cc3)ccc2[nH]1	7%
COCCn1c(SCC(=O)Nc2cccc(S(N)(=O)=O)c2)nc2ccccc21	-1%
Cc1c(Cl)cccc1NC(=O)CNC(=O)C1CCN(C(=O)Nc2ccccc2)CC1	8%
CCCCN1CCc2c([nH]c3ccccc23)C1=O	18%
COc1ccc(-c2csc(NC(=O)c3cc(=O)c4ccccc4o3)n2)cc1OC	7%
COc1ccccc1-c1nnc(SC/C(O)=C(\C#N)c2nc3ccccc3[nH]2)n1C1CCCCC1	5%
CCCCCNC(=O)C1CCC(Cn2c(=O)c3sccc3n(CC)c2=O)CC1 (configuration not stated)	-7%
C=C(C)C1CC=C(CN2CCC(C(=O)OCC)CC2)CC1 (configuration not stated)	1%
Cn1c(SCC(=O)N2CCCCCC2)nnc1-c1ccco1	-18%
Cn1c(-c2ccc(F)cc2)cnc1NCc1ccccc1	-4%
CCC(CC)C(=O)N=C1SC2CS(=O)(=O)CC2N1CCc1ccc(OC)c(OC)c1 (configuration not stated)	-4%

17 structures out of the list, ordered by formula weight, largest number first:
SMILES	VDR inh
CCOc1cc(N2CCOCC2)c(OCC)cc1NC(=O)CCS(=O)(=O)c1ccc(Cl)cc1	-1%
Cc1ccccc1Nc1nnc(-c2ccc(C)c(S(=O)(=O)N3CCN(C)CC3)c2)c2ccccc12	-3%
COc1ccccc1-c1nnc(SC/C(O)=C(\C#N)c2nc3ccccc3[nH]2)n1C1CCCCC1	5%
CCC(CC)C(=O)N=C1SC2CS(=O)(=O)CC2N1CCc1ccc(OC)c(OC)c1 (configuration not stated)	-4%
Cc1ccc(S(=O)(=O)N2CCCCC2)cc1NC(=O)CCNC(=O)c1ccccc1	-23%
Cc1c(Cl)cccc1NC(=O)CNC(=O)C1CCN(C(=O)Nc2ccccc2)CC1	8%
COCCn1c(SCC(=O)Nc2cccc(S(N)(=O)=O)c2)nc2ccccc21	-1%
O=C(CN1C(=O)/C(=C/c2ccc(F)cc2)SC1=S)NC1CCS(=O)(=O)C1 (configuration not stated)	-7%
CCCCCNC(=O)C1CCC(Cn2c(=O)c3sccc3n(CC)c2=O)CC1 (configuration not stated)	-7%
Cc1ccc(NC(=O)CCn2nc(-c3ccccc3)c3ccccc3c2=O)c(C)c1	-19%
O=c1ccc2cc(S(=O)(=O)Nc3ccc(OC(F)(F)F)cc3)ccc2[nH]1	7%
Cn1c(SCC(=O)N2CCCCCC2)nnc1-c1ccco1	-18%
CC1CCCN(C2(O)C(=O)Nc3c(C(F)(F)F)cccc32)C1 (configuration not stated)	-4%
O=C1NCCCC1C(=O)N/N=C/c1cc([N+](=O)[O-])ccc1O (configuration not stated)	13%
O=S(=O)(c1ccccc1F)N1CCCc2ccccc21	-19%
Cn1c(-c2ccc(F)cc2)cnc1NCc1ccccc1	-4%
O=C(O)COCC(=O)Nc1ccc2c(c1)CCC2	-7%

More structures follow.
SMILES	VDR inh
Cc1nn(-c2ccccc2)c(OC(=O)c2ccc(F)cc2)c1S(=O)(=O)c1ccccc1	-18%
O=C(c1ccc(F)cc1F)N1CCN(c2ccccn2)CC1	-4%
CN(C)C(=O)CSc1cccc2cccnc12	-23%
C[C@@H](CSc1ccc(Br)cc1)CN1CC[C@H](C(C)(C)C)CCC1=O	-4%
CN(C)C(=O)CSC1c2ccccc2C(=O)N1c1ccccc1 (configuration not stated)	-8%
Cc1cccc(NC(=O)c2cccc(NC3=NC4CS(=O)(=O)CC4S3)c2)c1 (configuration not stated)	0%
Cc1nn(-c2ccccc2)c(Cl)c1/C=C1\SC(=S)NC1=O	-21%
Cc1cccc(S(=O)(=O)C(C#N)c2nc3ccccc3nc2N2CCOCC2)c1 (configuration not stated)	7%
O=C(O)c1ccc(N2C(=O)CC(SC(=NCc3ccc4c(c3)OCO4)Nc3ccccc3)C2=O)cc1 (configuration not stated)	-19%
COC(=O)N/N=C\c1c(C)[nH]n(-c2ccccc2)c1=O	1%
CCc1nnc(NC(=O)CSc2nnc(CNc3ccc(Cl)cc3)o2)s1	3%
COc1cc(C2c3c(oc4ccccc4c3=O)C(=O)N2CCN2CCOCC2)cc(OC)c1OC (configuration not stated)	7%
CCOC(=O)C1(CCc2ccccc2)CCN(C(=O)CN2CCOC2=O)CC1	?
CC(C)COC(=O)C(C)Nc1n[nH]c(=S)[nH]c1=O (configuration not stated)	14%
C=CCn1c(SC(C)C(=O)NC2CC2)nnc1-c1ccoc1C (configuration not stated)	3%
COc1ccc(N2CCN(C(=O)c3cccc(NS(=O)(=O)c4cccc(F)c4)c3)CC2)cc1	14%
Cc1c(Cl)cnc(NC(=O)COC(=O)C(NC(=O)c2ccco2)C(C)C)c1Cl (configuration not stated)	8%
CCN(CC)CCNC(=O)c1cc2c(=O)n(CC)c3ccccc3c2s1	-15%
Cc1ccc(NC(=O)Cn2nc(C(=O)O)c3ccccc3c2=O)cc1S(=O)(=O)N1CCOCC1	0%
COc1ccc(NC(=O)CSc2ncc3c(n2)-c2cc(Cl)ccc2N(Cc2ccccc2F)S3(=O)=O)cc1	3%
CCn1c(=N)n(CC(O)COc2ccc(C)cc2)c2ccccc21 (configuration not stated)	-6%
Cc1ccnc(NS(=O)(=O)c2ccc(NC(=O)C3CCCCC3)cc2)n1	0%
CCOCCCN(C(=O)c1snc(C(N)=O)c1N)C(C(=O)NCCC(C)C)c1ccc(F)cc1 (configuration not stated)	-4%
CCCn1c2ccccc2c2cnn(CC(=O)N(CCCOC)Cc3ccco3)c(=O)c21	4%
O=C(Nc1cccc(Cl)c1)Nc1ccc(Br)cc1F	4%
More compounds follow:
SMILES	VDR inh
CCCN1CCN(C(=O)c2cc3c(s2)-c2ccccc2OC3)CC1	-17%
O=C(COC(=O)c1ccc2c(c1)OCCO2)NCc1ccccc1Cl	-1%
COc1cc(C)cc2oc(=O)c(CC(=O)NCc3cccc(Cl)c3)c(C)c12	14%
COc1ccc(C(=O)Nc2scc(-c3ccc(Cl)cc3Cl)c2C(N)=O)cc1	4%
CCCOc1ccc(-c2nnn(CC(=O)N3CCCCC3)n2)cc1	-6%
COc1ccc(N(CC(=O)NC2CCCC2)C(=O)Cn2nnc(-c3ccc(C)o3)n2)cc1	7%
O=C(CN1CCOCC1)Nc1cccc(C(=O)Nc2cccc(C(F)(F)F)c2)c1	15%
CN(C)C(=O)c1cnc(Sc2ncc(C(F)(F)F)cc2Cl)n1C	13%
Cc1ccccc1C(=O)Nc1ccc(N(C)C)c2ccccc12	14%
O=C(CN(C(=O)CCC(=O)Nc1nccs1)c1ccc(F)cc1)NCc1ccccc1	0%
O=C(Cc1ccccc1F)OCC(=O)N1CCc2ccccc21	-5%
Cc1ccc(C(=O)NCCc2c[nH]c3ccccc23)c(C)c1	-25%
CC(C)CCOc1ccc(NC(=O)C2OC3OC(C)(C)OC3C3OC(C)(C)OC23)cc1 (configuration not stated)	7%
COc1ccccc1NC(=O)/C(=N/OCc1ccc(F)cc1)C(C)=O	-14%
O=C1CC2C(=O)NCCN2C(=NC(=O)c2ccccc2)N1 (configuration not stated)	4%
C[C@H](CO)N1C[C@H](C)[C@@H](CN(C)C(=O)NC2CCCCC2)Oc2ccc(NC(=O)CCC(F)(F)F)cc2C1=O	-3%
COc1ccccc1N1CCN(CC(=O)Nc2ccc(S(=O)(=O)N3CCCCCC3)cc2)CC1	8%
Cc1nnc(N2CCC(C(=O)NC3CCCCC3)CC2)c2nn(-c3ccc(Cl)cc3)c(C)c12	8%
COc1ccc(NC(=O)CN2CCN(c3c(C)cc(C)cc3C)CC2)cc1	-16%
CCOC(=O)c1ccc2c(c1)sc(=NC(=O)c1ccco1)n2CCOC	-15%
CCCN(C(=O)CN1C(=O)NC2(CCCCCC2)C1=O)C1CCS(=O)(=O)C1 (configuration not stated)	-7%
Cc1cc(SCNC(=O)c2ccccc2)ncn1	-9%
CC(C)c1ccc(-c2noc(C3CCCN(C(=O)c4ccc(F)cc4F)C3)n2)cc1 (configuration not stated)	-7%
Cc1ccc(SCCCCN2CCNCC2)cc1	-14%
CCN(CC)CCCNc1ccc(-c2nnc(-c3ccc(OCC(C)C)cc3)o2)cn1	0%
(further entries)
SMILES	VDR inh
COCCCNCC(=O)Nc1sc(C)c(C)c1C(=O)OC	6%
Cc1ccc(-n2nc3ccc(NC(=O)COc4ccccc4C)cc3n2)cc1	-5%
Cc1ccccc1OC(C)C(=O)N1CCN(c2ccccn2)CC1 (configuration not stated)	6%
O=S(=O)(c1ccccc1)c1ccccc1/C=N\O	-1%
Cc1ccc(NC(=O)CC2SC(=O)NC2=O)cc1 (configuration not stated)	?
Oc1[nH]c2ccccc2c1C=NCC1CCCO1 (configuration not stated)	-13%
CCN1C(=O)c2cccc3c(NC(=O)c4ccccc4)ccc1c23	-2%
CCOc1cccc(CC(=O)N2CCc3c([nH]c4ccccc34)C2c2ccc(OC)cc2)c1OCC (configuration not stated)	12%
O=C(CSc1nnc(CNC(=O)c2cccs2)o1)NCCc1ccccc1	-20%
CCOc1ccc(N(CC(=O)Nc2ccc(OC)cc2)S(=O)(=O)c2c(C)noc2C)cc1	0%
COC(=O)c1sccc1NC(=S)N1C(C)CCCC1C (configuration not stated)	-8%
Cc1ccccc1NC(=S)NCCc1ccc(S(N)(=O)=O)cc1	-2%
COC(=O)Cn1c(=NC(=O)c2cc(OC)cc(OC)c2)sc2cc(OC)ccc21	8%
Cc1cccc(NC(=O)c2cc3n(n2)C(C(F)(F)F)CC(C2CC2)N3)c1C (configuration not stated)	3%
COCc1cc(C)nc2sc(C(=O)Nc3ccc(C(=O)OC)cc3)c(N)c12	-22%
O=C(CSc1nncn1-c1ccccc1F)NC1CCCCC1	-6%
CCOc1cc2[nH]c(=O)n(CCCCC(=O)N3CCN(c4ccccc4)CC3)c(=O)c2cc1OCC	-2%
Cc1ccc(C(=O)Nc2ccccc2N2CCCC2)s1	16%
O=C(CSc1nc2ccccc2[nH]1)N1CCN(S(=O)(=O)c2ccc(Cl)cc2)CC1	3%
Cc1cc(C)nc(SCC(=O)NC2CCCC2)n1	7%
CCCN1CCC(NC(=O)C2CC=CCC2C(=O)O)CC1 (configuration not stated)	16%
Cc1csc(=O)n1CC(=O)OCC(=O)c1c(N)n(CC(C)C)c(=O)n(C)c1=O	-3%
CCOc1cc(Br)c(C(=O)O)cc1OC	-2%
CCCCN(c1ccccc1)S(=O)(=O)c1cccc(C(=O)Nc2c(C)n(C)n(-c3ccccc3)c2=O)c1	-12%
Cc1ccc(NCc2nnc(SCC(=O)NCc3ccco3)n2CC2CCCO2)cc1Cl (configuration not stated)	3%

Sorted by SMILES length (falling): some entries from above
SMILES	VDR inh
CCOc1cc2[nH]c(=O)n(CCCCC(=O)N3CCN(c4ccccc4)CC3)c(=O)c2cc1OCC	-2%
Cc1ccccc1NC(=S)NCCc1ccc(S(N)(=O)=O)cc1	-2%
O=C(CSc1nncn1-c1ccccc1F)NC1CCCCC1	-6%

Additional structures:
SMILES	VDR inh
CCOc1ccc2[nH]c(C(=O)N/N=C/c3cc(OC)c(OC)c(OC)c3)cc2c1	7%
Cc1onc(-c2ccccc2)c1C(=O)N/N=C/c1cn(C)c2ccccc12	-10%
CC(C)CNC(=O)CSc1ccc(Cl)cc1	-18%
CCOC(=O)Cn1c(=O)n(Cc2ccc(C)cc2)c(=O)c2cccnc21	-13%
Cc1cc(C)c(NC(=O)CSc2nc3ccccc3c3nc(-c4ccccc4)nn23)c(C)c1	13%
Cc1ccc2nc(-c3ccc(NC(=O)COC(=O)c4ccco4)cc3)sc2c1	5%
COCCNC(=O)Cn1cc(C(=S)N2CCOCC2)c2ccccc21	-9%
COc1ccc(OCc2nn3c(-c4ccco4)nnc3s2)cc1	2%
CSc1ccc(/C=N/NC(=O)c2cccc(O)c2)cc1	0%
Cc1ccc2c(c1)nnn2C1CCN(CC(=O)Nc2ccccc2N2CCOCC2)CC1	-15%
Cc1cc(Cl)ccc1NC(=O)CN1C(=O)CSc2ccc(S(=O)(=O)N(C)C)cc21	11%
CSCCC1NC(=O)N(CC(=O)Nc2ccc(-c3ccccc3)cc2)C1=O (configuration not stated)	-9%
COc1ccc(CCNC(=O)c2ccnc(C(C)(C)C)c2)cc1OC	-22%
CC(=O)N1CCc2cc(Br)cc(S(=O)(=O)CCC(=O)N3CCN(c4ccccc4)CC3)c21	12%
CCn1c(=S)[nH]c2cc(C(=O)OC)ccc2c1=O	13%
Cc1ccc2cc(CN(Cc3ccccc3)Cc3nnnn3C3CCCC3)c(=O)[nH]c2c1	4%
CNc1c(NS(=O)(=O)c2ccc(C3CCCCC3)cc2)c(=O)oc2ccccc12	5%
CNC(=S)N/N=C/c1cc(C)n(-c2ccc(Cl)c(Cl)c2)c1C	-22%
